Assay outcomes (PubChem)
Six1-Eya2 blk: Six1/Eya2 interaction inhibition. Q15475+O00167. AlphaScreen GST-Six1/His-Eya2 binding, biochemical; stronger effect = lower value; control for the full effect not named in the record. activity change, % (test concentration not listed). hit rate 0.56% among 360,000; in the data active = activity change below about -65%; inconclusive = about -30% to -65%; inactive = above about -30%; further: on the % scale 0 is the no-effect control and ±100 the full control effect; compound concentration not given in the record
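AlphaScreen luminescence read after one hour at 37 °C in darkness. Pin-transferred compounds met GST-Six1 and His-Eya2 protein (5X stock 250 nM/500 nM) plus glutathione donor and Ni-chelate acceptor beads (5X, 50 ug/mL).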
TRPML1 blocker: human mucolipin-1 channel inhibition; hit rate 0.02% among 390,000; Q9GZU1; TRPML1-inducible cells, Ca2+ dye fluorescence, FDSS; stronger effect = lower value; inhibition of EC80 agonist-evoked calcium signal; AID 624415; activity change, negative = inhibition, % (concentration not given with the values); in the data active means activity change below about -50%; inconclusive means about -30% to -50%; inactive means above about -30%;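 further: stimulus is agonist 54-4 at its EC80 concentration; on the % scale 0 is the no-effect control and ±100 the full control effect; compound concentration not given in the record; the text of the record puts the active cut at -80%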
Target sequence (Q9GZU1 whole entry, looked up): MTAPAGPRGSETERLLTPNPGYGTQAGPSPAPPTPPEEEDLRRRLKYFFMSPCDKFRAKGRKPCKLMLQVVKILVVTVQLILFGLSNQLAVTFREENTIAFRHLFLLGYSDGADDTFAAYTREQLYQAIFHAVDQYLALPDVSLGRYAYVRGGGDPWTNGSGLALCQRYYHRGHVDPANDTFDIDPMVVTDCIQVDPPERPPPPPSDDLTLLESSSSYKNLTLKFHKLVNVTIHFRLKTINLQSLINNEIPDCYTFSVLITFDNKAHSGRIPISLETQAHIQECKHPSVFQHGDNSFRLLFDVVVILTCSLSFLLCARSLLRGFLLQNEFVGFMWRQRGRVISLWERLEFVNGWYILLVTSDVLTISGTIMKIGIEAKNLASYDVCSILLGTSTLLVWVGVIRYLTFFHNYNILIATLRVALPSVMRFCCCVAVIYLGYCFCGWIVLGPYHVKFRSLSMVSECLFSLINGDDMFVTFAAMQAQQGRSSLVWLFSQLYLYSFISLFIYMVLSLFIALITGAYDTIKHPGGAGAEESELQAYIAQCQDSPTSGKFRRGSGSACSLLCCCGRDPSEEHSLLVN
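TRPML1-DL cells, Tet-induced overnight (~16 h, 37 °C) at 1,500 cells/well, were loaded with Ca8 no-wash dye plus quencher for 45-90 min at room temperature. Compounds were pinned during FDSS kinetic reading; agonist 54-4 at EC80 (4 uM final) then added.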
PINK1 expr mod: PINK1 expression modulation | PINK1 immunofluorescence, high-content cytometry, 24 h | hit rate 0.2% among 410,000 | AID 624263 | Potency, µM (series often up to 76.6 µM), for inactives: top-dose activation (PINK1 increase), hits mostly activators; active = well fitted activation curve with a large enough effect; inconclusive = small, poorly fitted or top-dose-only effect; inactive = flat fitted curve, though single readings scatter; cell line not stated here;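 further: potency means the concentration at half of the fitted maximal effect; % of control where 0% means no effect; nearly all actives have a fitted effect of over 65% in size; a mitochondrial uncoupler was the plate control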
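Compound titrations (5 concentrations, 24 h) on a stable cell line; DMSO and CCCP controls. Endpoint: fixed-cell PINK1 immunofluorescence with mitochondrial, cell and nuclear markers, scanned by microplate cytometer.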
D2 potentiator: positive allosteric modulators of human D2 dopamine receptor; P14416; DiscoveRx D2 beta-arrestin cells, luminescence, 90 min; 100% = 57 uM dopamine signal; potentiation, % (no concentration beside the values); hit rate 0.23% among 360,000; active = potentiation of 50% or more; inconclusive = 30% to 50%; inactive = 30% or less;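 further: compound concentration not given in the record; tested on top of an EC20 dose of dopamine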
Target sequence (P14416 whole entry, looked up): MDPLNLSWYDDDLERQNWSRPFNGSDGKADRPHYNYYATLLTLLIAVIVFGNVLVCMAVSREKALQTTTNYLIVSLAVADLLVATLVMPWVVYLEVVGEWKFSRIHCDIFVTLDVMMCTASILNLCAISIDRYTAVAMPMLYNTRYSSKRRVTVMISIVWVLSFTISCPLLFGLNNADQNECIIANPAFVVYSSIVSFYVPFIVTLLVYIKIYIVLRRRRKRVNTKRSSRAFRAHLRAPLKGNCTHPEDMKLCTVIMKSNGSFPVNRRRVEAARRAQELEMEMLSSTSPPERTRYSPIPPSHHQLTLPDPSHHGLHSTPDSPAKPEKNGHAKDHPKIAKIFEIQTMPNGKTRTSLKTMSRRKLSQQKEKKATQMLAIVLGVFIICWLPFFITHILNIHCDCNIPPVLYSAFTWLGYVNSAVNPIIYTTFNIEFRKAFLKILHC
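PathHunter beta-arrestin assay in DiscoveRx D2 cells. Compounds were added with an EC20 of dopamine (50 nM final) for 90 min at 37 deg C. Luminescence was read 1 h after detection reagent, with 57 uM dopamine as the EC100 control.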
D2 ag: human D2 receptor agonism in beta-arrestin assay | P14416 | DiscoveRx PathHunter D2 beta-arrestin, luminescence, 90 min; 100% = 57 uM dopamine signal | activation, % (no concentration beside the values) | hit rate 0.084% among 360,000 | AID 624465; in the data active = activation above about 40%; inconclusive = about 15% to 40%; inactive = below about 15%; further: compound concentration not given in the record; the text of the record calls up to 30% inactive
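DiscoveRx PathHunter D2 beta-arrestin cells (2,100/well) attached overnight, then compound-stimulated 90 min at 37 C in HBSS/10 mM HEPES/0.1% Tween-20 buffer; beta-galactosidase complementation read by luminescence after 1 h at ambient temperature. Dopamine 57 uM final (EC100) as control.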
TRPML1 agonist: activates the human TRPML1 channel; Q9GZU1; TRPML1-expressing cells, Ca2+ dye fluorescence, FDSS; host cell line not named in the record; reference of the full effect not given here; activation, % (no concentration beside the values); hit rate 0.12% among 410,000; in the data active = activation above about 50%; inconclusive = about 30% to 50%; inactive = below about 30%; further: 0% is about no effect; the text of the record puts the active cut at 80%
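Agonist activity was taken from a 110 s kinetic Ca2+ dye read on the FDSS after pinning compounds onto TRPML1-DL cells. The cells were seeded at 1,500/well with Tet inducer, incubated about 16 h, then dye-loaded at room temperature.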
An asterisk follows results filed as active; ? = inconclusive; · = no result given; [ ] = remark or other dose.

SMILES | Six1-Eya2 blk | TRPML1 blocker | PINK1 expr mod | D2 potentiator | D2 ag | TRPML1 agonist
Cc1cc(C)n(-c2ccc(NC(=O)C3CCN(Cc4cnc(C)s4)CC3)cc2)n1 | 6 | 12 | 0.3% | -8 | -2.2 | -0.2
O=C1CCc2cc(S(=O)(=O)NC(C(=O)Nc3cccc(F)c3)c3ccccc3)ccc2N1 (configuration not stated) | · | 15 | 6.4% | · | · | -0.7
CN(C)S(=O)(=O)c1ccc(C(=O)NCc2nnc(SCC(=O)Nc3ccc(F)cc3)n2-c2ccc(F)cc2)cc1 | -6 | 0 | 2.1% | -12 | -0.9 | 0.3
CC(=O)Nc1ccc(Cl)c(-c2nc3ncccc3o2)c1 | ? | -10 | 2.7% | -1 | 2.3 | 0.9
Cc1ccccc1NC(=O)c1ocnc1C | 4 | -7 | 0.0% | -9 | -3.7 | 0.3
COc1ccc(NC(=O)c2ccccc2CC[N+](=O)[O-])cc1 | 3 | 11 | 0.0% | -5 | -4.9 | 0.0
O=C(NCc1ccccc1)N1CCOCC1 | 7 | · | 0.0% | 0 | -1.7 | ·
Cc1cccc2c(=O)cc(CSc3ccccc3NC(=O)c3cccc(F)c3)[nH]c12 | · | 22 | 2.7% | · | · | 1.5
CCCOc1ccc(Cc2c(COCC)[nH]c(=S)[nH]c2=O)cc1 | 5 | 1 | 1.1% | -17 | -3.8 | -1.0
COC(=O)CN(c1cc(C(F)(F)F)ccc1Cl)S(C)(=O)=O | 5 | 14 | ? | 2 | -2.2 | 1.0
CC1(C)NC(=O)N(CC(=O)N2CCN(c3ccc([N+](=O)[O-])cc3)CC2)C1=O | 1 | -6 | 1.7% | -3 | 2.2 | 1.6
CCOC(=O)c1c(C)[nH]c(C)c1C(=O)COC(=O)c1c(OC)cccc1OC | -1 | -1 | -1.7% | -3 | 0.0 | 0.1

Record cards (already shown):
Record of Cc1ccccc1NC(=O)c1ocnc1C → Six1-Eya2 blk: 4; TRPML1 blocker: -7; PINK1 expr mod: 0.0%; D2 potentiator: -9; D2 ag: -3.7; TRPML1 agonist: 0.3
Record of CC(=O)Nc1ccc(Cl)c(-c2nc3ncccc3o2)c1 → Six1-Eya2 blk: ?; TRPML1 blocker: -10; PINK1 expr mod: 2.7%; D2 potentiator: -1; D2 ag: 2.3; TRPML1 agonist: 0.9

The main list resumes, starting 2 compounds before the break.
SMILES | Six1-Eya2 blk | TRPML1 blocker | PINK1 expr mod | D2 potentiator | D2 ag | TRPML1 agonist
CC1(C)NC(=O)N(CC(=O)N2CCN(c3ccc([N+](=O)[O-])cc3)CC2)C1=O | 1 | -6 | 1.7% | -3 | 2.2 | 1.6
CCOC(=O)c1c(C)[nH]c(C)c1C(=O)COC(=O)c1c(OC)cccc1OC | -1 | -1 | -1.7% | -3 | 0.0 | 0.1
CCOc1ccc(CN2CCN(Cc3ccsc3)C(CCO)C2)cc1CO (configuration not stated) | 3 | -12 | 1.3% | -11 | -0.9 | 0.4
CCc1c(C)nc2ncnn2c1N1CCCC(C(=O)NCc2ccco2)C1 (configuration not stated) | 1 | 25 | 5.7%[38.3 µM] | -10 | -0.9 | 2.6
COC(=O)c1cnc(N2CCN(c3ccccc3F)CC2)c2ccccc12 | · | -4 | 2.6% | · | · | 0.4
Cc1cccc(C(=O)NCc2nnc(SCC(=O)NC(C)c3ccccc3)n2C)c1 (configuration not stated) | 11 | -4 | -1.0% | -9 | 2.2 | 0.4
N#Cc1ccc(-c2cccnc2)nc1SCc1ccc(Cl)cc1Cl | -1 | 58 | 0.5% | 6 | -2.7 | 1.2
C/C(=C\C(=O)O)C(=O)Nc1nccs1 | -4 | 4 | -0.1% | -12 | -3.2 | 0.7
Cc1ccc2oc(C(=O)N3CCC(N4CCSCC4)CC3)c(C)c2c1 | -5 | 3 | -0.2% | -8 | 2.8 | 0.6
COc1ccc2sc(N(CCCN(C)C)C(=O)c3ccc(S(=O)(=O)N(C)C4CCCCC4)cc3)nc2c1 | -23 | 27 | -2.3% | -38 | -4.8 | 1.1
CC1CCN(CC(=O)NCCc2ccc(F)cc2)CC1 | 10 | -10 | 0.1% | -15 | -2.4 | -0.8
CCc1nc(Nc2ccc(O)cc2)c2oc3ccccc3c2n1 | 5 | 48 | -0.8% | 1 | 1.2 | 2.8
CCCC(=O)Nc1cccn(Cc2ccccc2Br)c1=O | 0 | 10 | 1.7% | -5 | -6.3 | 1.0
Cc1ccc(OCCN(C)C)c([N+](=O)[O-])c1 | 9 | 9 | 0.6% | -12 | -3.4 | 0.0
Cc1ccc2nc(COc3ccc(NC(=O)COc4ccccc4F)cc3)cc(=O)n2c1 | · | -13 | 3.0% | · | · | -0.2
CCN(CC)c1nc2nonc2nc1N(CC)CC | -7 | 26 | 0.8% | -1 | -1.9 | -0.1
Clc1ccc(Cl)c2sc(N3CCOCC3)nc12 | 11 | 10 | -0.9% | 4 | -2.0 | 1.7
COc1ccc(Nc2nc(N3CCOCC3)nc(N3CCOCC3)n2)cc1 | 8 | · | 0.0% | 1 | -2.9 | ·
O=C(CSC1=Nc2ccccc2C2=NC(Cc3ccccc3)C(=O)N12)Nc1ccccc1C(F)(F)F (configuration not stated) | · | 26 | 5.2% | · | · | 0.2
CCN(CC)C(=O)CN(c1cccc(Br)c1)S(C)(=O)=O | 11 | -6 | -2.4% | 1 | 2.7 | 0.9
O=C(NCc1ccc(F)cc1)c1ccc(CS(=O)(=O)c2ccc(Br)cc2)o1 | 0 | 15 | -0.3% | -20 | -4.9 | 0.6
CN(C)S(=O)(=O)c1cccc(NC(=O)COC(=O)c2ccc3ccccc3n2)c1 | -4 | -9 | 4.2% | -3 | -1.6 | 0.8
COc1ccc(C)cc1NC(=O)COC(=O)c1c(C)noc1C | 0 | -4 | 14%[38.3 µM] | -4 | -0.5 | 0.1
CCNC(=O)c1ccc(C23CC4CC(CC(C4)C2)C3)o1 | 2 | 20 | 4.6% | -1 | 4.7 | 0.8
CSc1ncccc1C(=O)OCC(=O)c1ccc(S(=O)(=O)N2CCCCC2)cc1 | 8 | 2 | -2.3% | -9 | -6.4 | 1.3
Cc1cc(C)c(C(=O)NNC(=O)c2cccnc2)c(C)c1 | 0 | 8 | -0.1% | -3 | -3.2 | 0.9
CC(NC(=O)Nc1cccnc1)(C(F)(F)F)C(F)(F)F | 3 | -5 | 1.8% | -1 | -0.6 | -0.1
O=C(CCCCn1c(=O)c2ccccc2n(Cc2cccc(F)c2)c1=O)NCCc1ccccc1 | · | 29 | 5.6% | · | · | 1.6
Cn1c(NC(=O)c2ccccc2F)c(-c2cccs2)c(=O)c2ccccc21 | 16 | -3 | -1.0% | -18 | -3.7 | 0.4
O=C(O)CC1CC(O)CCC1=O (configuration not stated) | 11 | · | 3.8% | -5 | -4.4 | -0.3
COCCNC(=O)C1(C)CCN(C(=O)c2cc(C(C)(C)C)nn2C)C1 (configuration not stated) | 3 | · | -0.5% | -5 | -0.8 | -0.4
CCOc1ccc(NC(=O)CC(c2ccccc2)c2ccc(F)cc2)cc1 (configuration not stated) | -4 | -9 | 24% | -4 | -2.2 | 0.6
COC(=O)CCC(=O)NNC(=O)c1cccc(Cl)c1 | 0 | -4 | -3.5%[38.3 µM] | 6 | -0.5 | 0.2
O=C(c1cccs1)N1CCCc2cc(NS(=O)(=O)c3ccc(F)cc3)ccc21 | · | 2 | 3.0% | · | · | -0.6
CC(C)C(NC(=O)c1ccc(C(C)(C)C)cc1)C(=O)NCCc1ccccn1 (configuration not stated) | 0 | -1 | 0.8% | 0 | 0.1 | -0.6
CN1CCN(c2ccccc2NC(=O)c2cccc(OCc3ccccc3)c2)CC1 | -16 | 3 | · | -19 | -3.4 | 0.6
O=C(C1Cc2ccccc2CN1S(=O)(=O)c1ccc(F)cc1)N1CCCCC1 (configuration not stated) | 7 | -17 | -2.3% | -9 | 0.6 | 23
CN1C(=O)CCC(CCC(=O)O)(c2ccccc2O)C1=O (configuration not stated) | 1 | 6 | 2.0% | -13 | -3.1 | -0.6
Cc1cc2nc(Sc3c([N+](=O)[O-])nc(C)n3Cc3ccccc3)[nH]c2cc1C | -4 | 2 | -2.3% | -33 | -2.0 | 0.6
CC(C)CC(=O)Nc1nc2ccc(S(C)(=O)=O)cc2s1 | 1 | -4 | -0.2% | -4 | -2.6 | 0.4
CCN(CC)CCCNC(=O)CN1N=C(c2ccccc2)CCC1=O | · | 21 | 0.1% | · | · | 2.0
CCCN1CCN(CCCNC(=O)CCCn2nc(C)c3sc4ccccc4c3c2=O)CC1 | -14 | 16 | -1.0% | -8 | -0.3 | 0.0
Cc1ccc(NC(=O)C(C)SCc2ccccc2)cc1 (configuration not stated) | 8 | 5 | 4.9% | -7 | 0.3 | -1.5
O=C(CCNS(=O)(=O)c1ccccc1)N1CCCCCC1 | 4 | 16 | -0.7% | -10 | -2.1 | 0.3
Cc1ccccc1NC(=O)COC(=O)c1ccccc1SCC(=O)N1CCCC1 | 2 | 15 | -2.7% | -14 | 0.0 | -0.2
CC(=N)C1=C(O)CC(C)(C)CC1=O | 8 | 13 | -0.3% | -14 | -2.9 | -0.3
Cc1cc(C)n2nc(C(F)(F)F)c(-c3ccccc3)c2n1 | 14 | 2 | -1.2% | 9 | -3.0 | 1.2
Cc1ccc(NC(=O)Cn2nnc(-c3nc(-c4ccc(Cl)cc4)no3)c2N)cc1C | · | 11 | 0.7% | · | · | 0.3
COc1ccc(NC(=O)COc2ccc(Br)cc2)c(OC)c1 | -2 | 1 | 7.2% | -7 | -3.1 | 2.0
CC1=C(C(=O)OCc2ccccc2)C(c2cccs2)NC(=O)N1CCCC(=O)O (configuration not stated) | 9 | -25 | -1.5% | -4 | -1.5 | 0.1
COc1ccc(C(=O)NNC(=O)CSc2nnc(-c3cccnc3)o2)cc1 | -11 | -5 | -1.5% | 2 | 0.5 | 0.1
CN(C(=O)Cn1nc(C(=O)O)c2ccccc2c1=O)C1CCCCC1 | 4 | 7 | 2.2% | -18 | -1.5 | -0.4
CCOC(=O)c1ccc(N=C2SC(C(=O)NC)CC(=O)N2Cc2ccc(F)cc2)cc1 (configuration not stated) | 4 | 3 | 9.7% | -1 | 0.4 | 0.2
O=C(NCC(=O)N1CCN(c2ncccn2)CC1)c1ccccc1F | 7 | 3 | 0.2% | -4 | 0.4 | -0.8
COc1ccc(CNC(=O)c2sc(=O)n(Cc3ccc(C)cc3)c2C)cc1 | 1 | · | -1.2% | -6 | 5.8 | 2.0
O=C(CSc1ccc(Cl)cc1)NNC(=O)c1ccco1 | -6 | -6 | -0.8% | -10 | -4.0 | -0.6
COc1ccc(N2CC(C)Cn3c2nc2c3c(=O)n(CCN3CCOCC3)c(=O)n2C)cc1 (configuration not stated) | 3 | -8 | -0.4% | 10 | 1.1 | 0.7
O=C(CNC(=O)C1CCCCC1)Nc1ccc(Cl)cc1 | 8 | 0 | -1.6% | -3 | 0.0 | -0.7
